# Screens as filed in PubChem.
# RE007 growth inh: less growth of the S. pombe RE007 Vpr strain | S. pombe RE007 Vpr strain, BacTiter-Glo ATP luminescence, 24 h; control for the full effect not named in the record | Potency, µM (doses to about 92.2 µM), for the others: top-dose activity change, negative = less growth | 360,000 compounds, 0.21% hits | AID 651644; active = well fitted falling curve with a large enough effect; inconclusive = small, poorly fitted or top-dose-only effect; inactive = no such curve, though single readings can be large or run the other way;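 also: % is scaled to controls: 0 for no effect and ±100 for the full control effect; nearly all actives have a fitted effect of over 50% in size; the assay follows cell death caused by Vpr and the record does not say whether a fall means rescue or toxicity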
#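 Fission yeast strain RE007, carrying one chromosomally integrated HIV-1 vpr copy, was seeded at OD 0.01 in PMG+AL medium with 23 nL pinned compound. After 24 h at 30 °C and 99% humidity, viability was read by BacTiter-Glo luminescence.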
# Cruzain Triton: cruzain (T. cruzi) inhibition with detergent. P25779. purified cruzain, Z-FR-AMC fluorescence, 0.01% Triton. Potency, µM, for the others: max response, negative = inhibition, actives largely listed as inhibitors. 200,000 compounds, 0.43% hits. AID 1478;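 also: plate controls were neutral wells for no effect and buffer without enzyme for full effect; nearly all actives have a fitted effect of over 40% in size; top concentration of the series not given in the record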
# Target sequence (P25779 123-467 limits assumed): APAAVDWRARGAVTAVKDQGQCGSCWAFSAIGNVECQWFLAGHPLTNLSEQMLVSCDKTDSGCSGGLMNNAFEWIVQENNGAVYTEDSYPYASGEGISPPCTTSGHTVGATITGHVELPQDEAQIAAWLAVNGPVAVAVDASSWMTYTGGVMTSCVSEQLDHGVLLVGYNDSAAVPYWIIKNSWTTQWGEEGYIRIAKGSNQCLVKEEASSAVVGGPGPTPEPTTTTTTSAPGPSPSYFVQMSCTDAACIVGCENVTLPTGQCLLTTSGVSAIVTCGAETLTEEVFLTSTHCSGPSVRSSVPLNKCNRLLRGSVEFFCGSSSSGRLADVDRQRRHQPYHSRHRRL
#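 Enzyme 1.5 nM, Z-FR-AMC 2 uM, NaOAc 100 mM pH 5.5, DTT 5 mM, Triton X-100 0.01%; 15 min RT compound preincubation; kinetic ex360/em450, 60 s delta.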
# SARS PLP yeast: inhibitors of SARS-CoV papain-like protease in yeast | S. cerevisiae expressing SARS-CoV PLpro, growth rescue; control for the full effect not named in the record | Potency, µM (series often up to 32.9 µM), for the others: top-dose activity, positive = growth rescue | 330,000 compounds, 0.19% hits | AID 485353; active means well fitted rising curve with a large enough effect; inconclusive means small, poorly fitted or top-dose-only effect; inactive means no such curve, though single readings can be large or run the other way; also: 0% is about no effect; nearly all actives have a fitted effect of over 55% in size; growth read by luminescence after 48 h
# LASV entry inh: Lassa virus entry inhibition; Potency, µM (titrated, usually from 37.9 µM), for the others: at the top dose activity change, negative = inhibition, most hits filed as inhibitors; 300,000 compounds, 1.2% hits; Lassa virus pseudotype entry inhibition, cell reporter; control for the full effect not named in the record; active means well fitted inhibition curve with a large enough effect; inconclusive means small, poorly fitted or top-dose-only effect, or effect the other way; inactive means flat fitted curve, though single readings scatter; tested in HEK293 cells; also: % is scaled to controls: 0 for no effect and ±100 for the full control effect; nearly all actives have a fitted effect of over 50% in size; luciferase read-out
# Marburg entry inh: blocks Marburg virus binding to or entry into cells; Marburg virus pseudotyped entry inhibition, cell reporter; control for the full effect not named in the record; about a third of the inactives were read at about 46 µM; Potency, µM (doses to about 37.8 µM), for the others: top-dose activity change, negative = inhibition, usual class: inhibitors; 300,000 compounds, 1.8% hits; AID 540276; active = well fitted inhibition curve with a large enough effect; inconclusive = small, poorly fitted or top-dose-only effect, or effect the other way; inactive = flat fitted curve, though single readings scatter; tested in HEK293 cells; about a fifth of its hits are not listed in these tables; also: % is scaled to controls: 0 for no effect and ±100 for the full control effect; luciferase read-out
# Cruzain noTriton: inhibitors of Trypanosoma cruzi cruzain without detergent | Potency, µM, for the others: max response, negative = inhibition, usual class: inhibitors | 200,000 compounds, 2.3% hits | purified cruzain, Z-FR-AMC fluorescence, no detergent;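 also: plate controls were enzyme without inhibitor for no effect and buffer without enzyme for full effect; nearly all actives have a fitted effect of over 40% in size; top concentration of the series not given in the record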
#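 Purified cruzain at 1.5 nM, pre-incubated 15 min with compound at room temperature in 100 mM sodium acetate pH 5.5, 5 mM DTT, 0.00005% Triton X-100. Reaction started with 2 uM Z-FR-AMC; AMC fluorescence increase over 60 s gives rate.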
# 2A StopGo: lowers the luciferase signal of an FMDV 2A StopGo reporter | 410,000 compounds, 1.2% hits | Potency, µM (highest dose often 57.9 µM), inactives show at the highest dose signal change, negative = less light | human cells with a luciferase reporter of 2A StopGo recoding; control for the full effect not named in the record; active = well fitted falling curve with a large enough effect; inconclusive = small, poorly fitted or top-dose-only effect; inactive = no such curve, though single readings can be large or run the other way; tested in HEK293T cells; also: % is scaled to controls: 0 for no effect and ±100 for the full control effect; nearly all actives have a fitted effect of over 45% in size; luciferase light after 4 h
# NS1 inh: blocks influenza NS1 protein function; S. cerevisiae slowed by influenza A NS1, growth recovery by OD600; Potency, µM (series often up to 46.1 µM), for the others: at the top dose activity, positive = more growth; 270,000 compounds, 0.4% hits; active means well fitted rising curve with a large enough effect; inconclusive means small, poorly fitted or top-dose-only effect; inactive means no such curve, though single readings can be large or run the other way; also: nearly all actives have a fitted effect of over 50% in size
#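 Read-out: OD600 growth recovery of NS1-expressing budding yeast. Cells grown overnight at 30C in -URA glucose medium, washed, resuspended and diluted 1:100 in 2% galactose assay medium, pH 6.0. Same strain lacking NS1 served as positive control.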
# An asterisk follows results filed as active; ? = inconclusive; . = not tested or not shown; [ ] = dose if it differs, or a comment. Unless noted, calls follow the shape of the dose curve; as a rule, active = well fitted curve in the direction sought with a large enough effect; inconclusive = small, poorly fitted or top-dose-only effect, or another doubt; inactive = no such curve, though single readings can be large; an effect the other way counts as inactive or inconclusive. Potency is read from the fitted curve at half-maximal effect.
SMILES,RE007 growth inh,Cruzain Triton,SARS PLP yeast,LASV entry inh,Marburg entry inh,Cruzain noTriton,2A StopGo,NS1 inh
CC1=C(C)CC(C(=O)Nc2cccc(Cl)c2)C(C(=O)O)C1 (stereo not given),15%,-1.6%,28%,-14%,-2%,-4%,-5%,8%
C=C(C)CNC(=S)N1CCNC(=O)C1CC(=O)OC (stereo not given),0%,3.2%,9%,9%,-1%,-8%,-3%,23%
COc1ccc(NC(=O)COC(=O)c2ccc(OCc3c(C)noc3C)cc2)cc1OC,7%,-2.1%,4%,-28%,-15%,19%,?,25%
O=C(NC1CCCCC1)N(CCN1CCCC1)Cc1cc2cc3c(cc2[nH]c1=O)OCCO3,-3%,2.1%,3%,6%,-22%,-8%,7%,7%
CC(C)CSc1n[nH]c(=S)s1,8%,.,1%,-2%,?,.,7%,.
COc1cc(/C=C/C(=O)Nc2cccnc2)cc(OC)c1OC,9%,.,2%,.,.,.,14%,-18%
Cc1cccc(N2CCN(C(=O)NC(C)c3ccc(F)c(F)c3)CC2)c1C (stereo not given),18%,.,-4%,?,?,.,-15%,-9%
CCOC(=O)c1cccc(NC(=O)c2ccc(-n3cnnn3)cc2)c1,-1%,.,-1%,-3%[46.1 µM],7%[46.1 µM],.,-13%,.
CCc1cccc(NC(=O)CCS(=O)(=O)c2cc3c4c(c2)CCN4C(=O)CC3)c1,.,-1.8%,.,10%[46.1 µM],.,-4%,18%,.
O=C(/C=C/Nc1cccc(C(F)(F)F)c1)C(F)(F)F,17%,-3.4%,6%,5%,1%,3%,-15%,5%
CCC(C)NS(=O)(=O)c1ccc(OCC(=O)NCC2CCCO2)cc1 (stereo not given),-4%,4.5%,-1%,11%,1%,-5%,.,-4%
COc1ccccc1NCCC(=O)O,-4%,.,0%,.,.,.,-11%,-5%
Cc1cc(NS(=O)(=O)c2c(C)[nH]c(=O)[nH]c2=O)ccc1Br,1%,.,0%,.,.,.,?,2%
CC(=O)N1CCc2cc(Br)cc(S(=O)(=O)CCC(=O)N3CCN(c4ccccc4Cl)CC3)c21,.,-1.7%,.,-10%[46.1 µM],-12%[46.1 µM],15%,0%,.
CCc1nnc(NC(=O)CCC(=O)NC2CCCCCC2)s1,2%,.,12%,5%[46.1 µM],3%[46.1 µM],.,20%,-1%
COc1ccccc1CNC(=O)COC(=O)c1ccc(S(=O)(=O)N2CCCCC2)cc1,0%,.,-1%,-1%,14%,.,-17%,.
NS(=O)(=O)c1ccc(CNC(=O)c2ccc3c(=O)n4c(nc3c2)CCC4)cc1,13%,.,-2%,14%,0%,.,-16%,.
Cc1cnc(C(=O)Nc2ccc(OC(F)(F)F)cc2)cn1,1%,.,4%,.,.,.,0%,-16%
CCc1nc(SCc2ccc(F)cc2)n[nH]1,1%,.,0%,-1%[46.1 µM],0%[46.1 µM],.,6%,4%
Cc1ccc(Cn2cnc3ccccc32)cc1,5%,1.2%,?,0%,-20%,-6%,.,-46%
CCC(C)C(=O)Nc1ccc(OC)cc1[N+](=O)[O-] (stereo not given),-23%,-3.2%,-18%,8%,4%,-3%,9%,-1%
COc1ccc(-n2cc(-c3ccccc3)c3c(NC4CCCCC4)ncnc32)cc1,.,0.9%,.,15%[46.1 µM],.,-7%,-17%,.
CC1CCCC(C)N1C(=O)CSc1nnc(COc2ccc(F)cc2)o1 (stereo not given),-1%,.,-2%,-18%,-6%[46.1 µM],.,-15%,-4%
O=C(NC1CCCCCC1)c1cccc(S(=O)(=O)N2CCOCC2)c1,20%,.,1%,-21%[46.1 µM],9%[46.1 µM],.,8%,.
O=C(NCCCN1CCCC1=O)c1nnc(Cc2c(F)cccc2Cl)o1,-1%,4.5%,1%,6%,15%,0%,-17%,-6%
O=C(N/N=C/c1ccc(N2CCOCC2)cc1)c1ccccn1,0%,.,-3%,.,.,.,-30%,2%
CN1C(=O)C2C(c3ccc(N(C)C)cc3)=NN(Cc3ccccc3)C2C1=O (stereo not given),16%,.,0%,-4%,-6%[46.1 µM],.,-7%,.
Nc1nc2c(nc(Br)n2C2O[C@H]3COP(=O)(O)O[C@@H]3C2O)c(=O)[nH]1 (stereo not given in full),.,-5.4%,.,.,?,3%,.,-1%
CC1CCc2c(sc(NC(=O)CSc3ncn[nH]3)c2C#N)C1 (stereo not given),9%,.,2%,.,.,.,?,-17%
O=C(Cn1cnc2ccccc2c1=O)NNC(=O)c1ccccc1,4%,.,1%,?,8%[46.1 µM],.,0%,2%
O=C(NCc1ccco1)c1ccccc1NC(=O)C1CC(=O)N(c2ccc(Cl)cc2)C1 (stereo not given),6%,-6.3%,-1%,?,?,-2%,-18%,-19%
COc1ccccc1CNC(=O)CNC(=O)c1sc2ccccc2c1Cl,-5%,.,0%,?,-9%[46.1 µM],.,40%[activator],6%
Cc1nc(NCc2ccco2)c2c(C)c(C)sc2n1,-12%,-1.7%,1%,8%,?,7%,?,-45%
C=CCn1c(SCC(=O)Nc2ccc(N3CCOCC3)cc2)nc2ccccc2c1=O,9%,.,12%,-6%[46.1 µM],6%[46.1 µM],.,-19%,13%
Cc1ccc(C)c(NC(=O)C(c2ccccc2)N2CCN(CC(=O)NC3CC3)CC2)c1 (stereo not given),?,.,-6%,1%,24%,.,-1%,.
COc1ccc(NC(=O)CCCc2ccccc2)cc1OC,14%,.,-6%,1%[46.1 µM],?,.,23%,4%
Cc1onc(C(=O)NN)c1C(=O)Nc1ncc(C(F)(F)F)cc1Cl,-4%,.,6%,22%[46.1 µM],-22%[46.1 µM],.,5%,.
COc1ccc(/C=N/NC(=O)c2cccc(NC(C)=O)c2)c(C(=O)O)c1OC,-5%,.,-4%,0%[46.1 µM],-15%[46.1 µM],.,5%,.
CCOCCCNc1nc2c(C)cccn2c(=O)c1/C=C1\SC(=S)N(CC(C)C)C1=O,14%,-2.8%,-5%,2%,25%,-11%,16%,?
CCCCN(C(=O)c1ccc(OC)c([N+](=O)[O-])c1)c1c(N)n(CCC)c(=O)[nH]c1=O,5%,.,1%,-2%[46.1 µM],?,.,22%,3%

# Entries shown so far containing bromine, in the order listed:
SMILES,RE007 growth inh,Cruzain Triton,SARS PLP yeast,LASV entry inh,Marburg entry inh,Cruzain noTriton,2A StopGo,NS1 inh
Cc1cc(NS(=O)(=O)c2c(C)[nH]c(=O)[nH]c2=O)ccc1Br,1%,.,0%,.,.,.,?,2%
CC(=O)N1CCc2cc(Br)cc(S(=O)(=O)CCC(=O)N3CCN(c4ccccc4Cl)CC3)c21,.,-1.7%,.,-10%[46.1 µM],-12%[46.1 µM],15%,0%,.
Nc1nc2c(nc(Br)n2C2O[C@H]3COP(=O)(O)O[C@@H]3C2O)c(=O)[nH]1 (stereo not given in full),.,-5.4%,.,.,?,3%,.,-1%

# Carrying on:
SMILES,RE007 growth inh,Cruzain Triton,SARS PLP yeast,LASV entry inh,Marburg entry inh,Cruzain noTriton,2A StopGo,NS1 inh
CC(C)N(Cc1ccccc1)C(=S)NC(=O)C1(C)CC1(Cl)Cl (stereo not given),7%,.,1%,-30%,?,.,30%,.
COc1ccc(-n2nnc3c(=O)n(C/C=C/c4ccccc4)cnc32)cc1,-21%,4.3%,-2%,?,4%,-17%,-23%,0%
COc1ccc(CNC(=O)C(OC(C)=O)c2ccccn2)cc1 (stereo not given),-3%,9.1%,-5%,1%,1%,-1%,-13%,-11%
CN1CCN(S(=O)(=O)c2ccc(NC(=O)C3CCCO3)cc2)CC1 (stereo not given),-5%,-0.5%,3%,-3%,21%,-3%,8%,-6%
CC(=O)N1CCN(c2ccc(NCc3ccc(C)s3)cc2)CC1,-15%,-2.6%,5%,.,.,-11%,-11%,10%
CCc1ccc(/C=N/NC(=O)Cc2cccn2C)cc1,-12%,.,-2%,5%,8%[46.1 µM],.,2%,-2%
O=C(OCCO)c1cc(Cl)c(C(=O)OCCO)cc1Cl,-12%,-2.0%,5%,-8%,-1%[46.1 µM],4%,-2%,-1%
Cc1ccc(C)c(NC(=O)C(OC(=O)c2ccc(C)s2)c2ccccc2)c1 (stereo not given),-11%,-0.9%,18%,16%,?,12%,7%,-3%
Cc1nn(-c2ccccc2)cc1/C=N/O,-11%,5.5%,1%,26%,24%,-8%,65%[activator],-13%
O=C(Nc1ccccc1N1CCCC1)c1cccc(-c2cc3ccccc3oc2=O)c1,12%,-3.6%,-20%,-2%,-13%,25µM*,-9%,?
Cc1nc2nc(SCC(=O)Nc3cccc(F)c3)[nH]c2cc1Br,9%,.,0%,.,.,.,?,2%
O=C(c1cc2ccc3cccnc3c2[nH]1)N1CCN(c2cccc(Cl)c2)CC1,.,-6.0%,.,5%[46.1 µM],.,?,?,.
O=C(CCc1nc(-c2ccccc2Cl)no1)NCC1CCCO1 (stereo not given),-11%,.,-1%,5%[46.1 µM],3%[46.1 µM],.,-21%,.
COc1ccc(NC(=O)c2ccc3c(c2)OCO3)cc1[N+](=O)[O-],2%,.,-1%,18%,-5%[46.1 µM],.,30%[activator],-1%
O=C(CSc1nccn1-c1ccc(Cl)cc1)Nc1nc2ccccc2s1,.,-2.3%,.,0%[46.1 µM],.,-27%,-12%,.
CC(C)=CC(=O)N1CCCc2ccccc21,5%,3.6%,-3%,2%,-10%,-3%,16%,-33%
Cc1nnc(C)c2c(C)n(Cc3ccc4c(c3)OCO4)c(C)c12,-14%,-19%,1%,-2%,-10%,?,-22%,10%
O=C(CCN1CCCCC1)Nc1ccc(Br)cc1,4%,-3.3%,22%,15%,?,-12%,-2%,-6%
CCOc1ccc(CNC(=O)C2CCN(c3nnc(-n4cccc4CNc4ccc(C)cc4)s3)CC2)cc1OC,.,-1.5%,.,.,3%[46.1 µM],4%,-5%,.
Cc1ccc(OCCNC(=O)C(=O)NCc2ccco2)cc1,4%,.,-1%,?,?,.,3%,-3%
